# Source: PubChem BioAssay (several laboratories)
# T cruzi repl: T. cruzi replication inhibition; T. cruzi beta-gal in NIH3T3, luminescence, 90 h; inhibition, % (no concentration beside the values); hit rate 1.4% among 300,000;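 active = mean inhibition across valid replicates above about 55%, limit read from the data; inconclusive = mean below that limit but half or more replicates reach it; inactive = mean below it, under half of replicates reach it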;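 note: signal also drops with host cell toxicity which is not excluded here; 0% = plate median of DMSO wells and 100% = zero luminescence signal; higher percent means less beta-gal luminescence so fewer parasites; stock transfer was 50 nL into about 50 µL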
# rRNA inh HTS: inhibitors of bacterial rRNA selective over humanized ribosomes. E. coli WT GFP vs humanized-ribosome RFP mutants, fluorescence, 24 h; hits give low values; DMSO median 0, no signal -100. GFP signal change (wild-type ribosome), % (test concentration not listed). hit rate 1.6% among 350,000. AID 720706;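 active = significant combined selectivity score with lowered wild-type GFP, culture density cut under 30%, mutant RFP and density less affected; inactive = any of these conditions unmet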; note: one replicate is shown; some compounds called inactive have numbers as strong as hits
# Beta2AR agonist: activates human beta-2 adrenergic receptor causing internalization; P07550; Am2.2-beta2AR cells, FAP receptor internalization, flow cytometry; reference of the scale not given here; response, % (concentration not given with the values); hit rate 0.43% among 340,000; AID 504454;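 active = response above a set limit, near 3 SD of response in nonfluorescent compounds, cut at about 42% in these data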;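 note: stock transfer was 100 nL into about 11 µL; a reference agonist was the positive control; negative values mostly stem from fluorescent compounds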
# Beta cell apopt: beta cell apoptosis inhibition. INS-1E cytokine-induced death, ATP luminescence, 48 h; percent of positive-control rescue, neutral wells zero. protection from apoptosis, % (test concentration not listed). hit rate 0.8% among 300,000;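 active = all replicates at 75% or more, or half of them and the mean; inconclusive = half reach 75% but not the mean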;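 note: 0% = cytokine-treated negative control wells and 100% = positive control rescue; higher means more ATP so stronger rescue from cytokine killing; wells of about 40 µL received 100 nL stock; the first replicate is given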
# ALR H2O2 inh: blocks human ALR sulfhydryl oxidase activity; hit rate 3.8% among 290,000; inhibition, % (test concentration not listed); purified ALR, DTT oxidation, H2O2 HRP-luminol luminescence; P55789;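 active = mean and each replicate at 75% or more; inconclusive = only one of the two met; inactive = neither met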;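 note: stock transfer was 7.5 nL into about 7.5 µL; 0% = neutral wells and 100% = wells with inactivated enzyme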
# LANA-H2B inh: blocks KSHV LANA binding to histone H2A/H2B | Q9QR71 | cell-free LANA-H2A/H2B peptide, fluorescence polarization | inhibition, % (test concentration not listed) | hit rate 0.6% among 320,000; in the data active = inhibition mostly above about 10%, no sharp cut-off; inactive = mostly below about 6.7%;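 note: stock transfer was 7.5 nL into about 10 µL; 0% = median of vehicle wells and 100% = median of positive control wells; one replicate is shown; the record names a cut of 25% in any replicate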
# Target sequence (Q9QR71 whole entry, looked up): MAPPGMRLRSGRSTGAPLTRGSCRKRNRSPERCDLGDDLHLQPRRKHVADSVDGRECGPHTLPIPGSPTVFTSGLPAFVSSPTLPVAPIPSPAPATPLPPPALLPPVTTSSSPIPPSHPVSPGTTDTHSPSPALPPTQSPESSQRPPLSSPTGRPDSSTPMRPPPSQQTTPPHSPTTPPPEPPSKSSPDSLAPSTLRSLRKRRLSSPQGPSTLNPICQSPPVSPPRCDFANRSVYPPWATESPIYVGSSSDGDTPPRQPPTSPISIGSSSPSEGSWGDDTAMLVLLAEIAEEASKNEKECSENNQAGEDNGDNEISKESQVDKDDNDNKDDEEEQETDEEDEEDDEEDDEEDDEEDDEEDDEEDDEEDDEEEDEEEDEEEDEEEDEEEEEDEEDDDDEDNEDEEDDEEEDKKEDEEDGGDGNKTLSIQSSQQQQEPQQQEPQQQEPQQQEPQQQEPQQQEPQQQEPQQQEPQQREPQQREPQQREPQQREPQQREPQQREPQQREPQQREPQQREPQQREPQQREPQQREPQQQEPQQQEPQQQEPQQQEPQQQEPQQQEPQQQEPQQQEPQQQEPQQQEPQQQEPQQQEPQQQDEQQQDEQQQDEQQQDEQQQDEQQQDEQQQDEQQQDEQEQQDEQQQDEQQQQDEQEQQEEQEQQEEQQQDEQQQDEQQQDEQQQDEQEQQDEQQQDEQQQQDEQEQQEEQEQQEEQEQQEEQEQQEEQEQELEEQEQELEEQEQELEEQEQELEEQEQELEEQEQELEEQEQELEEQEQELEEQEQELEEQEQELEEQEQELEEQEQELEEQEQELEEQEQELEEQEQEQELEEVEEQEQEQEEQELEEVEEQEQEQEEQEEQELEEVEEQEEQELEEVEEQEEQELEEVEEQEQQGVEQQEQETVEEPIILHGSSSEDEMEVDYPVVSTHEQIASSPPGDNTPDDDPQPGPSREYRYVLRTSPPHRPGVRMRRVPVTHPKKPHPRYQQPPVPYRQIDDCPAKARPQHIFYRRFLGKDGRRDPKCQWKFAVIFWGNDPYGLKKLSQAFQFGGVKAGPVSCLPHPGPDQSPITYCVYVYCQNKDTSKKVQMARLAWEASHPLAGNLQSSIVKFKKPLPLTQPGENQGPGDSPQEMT
# Bfl-1 A1 inh: inhibitors of the anti-apoptotic protein A1, read as caspase activation. MEF A1-2A-BIM cells, Caspase-Glo 3/7 luminescence, 3 h; percent of clofoctol response, vehicle zero. caspase activation, % (concentration not given with the values). hit rate 0.066% among 330,000. AID 2462;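 active = over half of replicate activation scores above 10%, or exactly half above 10 with the replicate mean above 10; inconclusive = replicate mean below 10 yet half the replicates above 10; inactive = over half of replicates below 10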;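 note: wells of about 30 µL received 50 nL stock; many hits fall short of the cut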
# Calb FLC: affects C. albicans growth with fluconazole; C. albicans CaCi-2 (fluconazole-resistant clinical isolate) + fluconazole, Alamar Blue growth, 48 h; hit rate 0.57% among 300,000; growth inhibition, % (concentration not given with the values); AID 1979;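 active = most replicates above 75%; inconclusive = exactly half above 75%; inactive = most below 75%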;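 note: all wells also contain fluconazole at 8 µg/ml as a sub-toxic cotreatment; 0% = median of DMSO wells and 100% = median of geldanamycin control wells; wells of about 8 µL received 7.5 nL stock; the first replicate is given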
# rRNA inh HTS OD600: also measured in rRNA inh HTS; calls as there; OD600 change, %; measured here: OD600 growth;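 optical density of the mix in the first replicate; 0 = DMSO median and -100 = no signal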
# rRNA inh HTS RFP: second read-out of rRNA inh HTS, no call of its own (marks repeat the call); RFP signal change, %; measured here: RFP humanized mutant strains;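 first replicate; 0 = DMSO median and -100 = no signal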
# * = called active by the depositor; ? = inconclusive; nt = not tested or not shown; & = joins results of further samples.
# Values in the order: T cruzi repl, rRNA inh HTS, rRNA inh HTS OD600, rRNA inh HTS RFP, Beta2AR agonist, Beta cell apopt, ALR H2O2 inh, LANA-H2B inh, Bfl-1 A1 inh, Calb FLC
- C[C@H](CO)N1C[C@H](C)[C@@H](CN(C)C(=O)NC2CCCCC2)Oc2ccc(NS(=O)(=O)c3cn(C)cn3)cc2C1=O
  nt, 5&10, 1&8, -1.9&-1.4, -5, -3, -4, nt, 0.5, nt
- O=C(Nc1cccnc1)Nc1cc(Cl)cc(Cl)c1
  25, -46, -78, -9.4, 2, 20, -2, -5.0, 1.1, 11
- O=C(Nc1cccnc1)c1cc(-c2ccc(F)cc2)on1
  -4, 22, 15, 0.3, -5, -2, -5, 8.2, 0.5, 5
- OCCNCc1ccc(-c2ccccc2)cc1
  12, 17, -5, 3.4, 1, 5, nt, 9.4, -0.4, -2
- CCc1nnc(SCC(=O)N2CCc3ccccc32)n1CC
  4, 5, 7, -0.2, -2, 1, -4, 2.0, 1.4, -4
- CCc1nc2oc3ccccc3c(=O)c2cc1C(=O)OC
  1, 8, 6, 1.9, 7, 4, -2, 1.0, -4.8, -9
- CCc1ccc2[nH]c(=O)c(-c3ccccc3)c(O)c2c1
  -8, 19, 11, 1.6, -3, nt, 1, -0.5, -0.4, 1
- Cc1c(Cl)cccc1NC(=O)CCN1CCCCCC1
  1, nt, nt, nt, -4, -2, nt, 3.5, 0.7, 4
- COc1ccccc1NC(=O)COn1nnc2ccc(S(=O)(=O)N3CCOCC3)cc21
  -4, 6, 7, 2.1, -5, nt, -3, 2.0, 0.0, 1
- O=C1C2C(c3ccccc3)(C(=O)N1c1ccc(Cl)cc1)C2(c1ccccc1)c1ccccc1 (stereo unspecified)
  46, 11, 5, -3.4, 3, 1, -7, -6.8, -0.2, ?
- CCC(=O)N1CCc2cc(S(=O)(=O)NC(C(=O)NC3CCCc4ccccc43)C(C)C)ccc21 (stereo unspecified)
  19, 26, 17, 1.6, -5, 2, nt, nt, 0.1, 12
- O=C(CC(c1ccccc1)c1ccccc1)Nc1ccc2c(c1)OCCO2
  14, nt, nt, nt, 0, 9, 28, -2.9, -1.0, 7
- COc1cc(Cl)c(CN2CCCC(CO)(Cc3ccccc3)C2)cc1OC (stereo unspecified)
  4, 0, 2, -1.8, -1, -2, -5, -1.9, 0.0, -1
- CC12C(=O)N(c3ccc(C(=O)N4CCOCC4)cc3)C(=O)C1C1c3ccccc3C2c2ccccc21 (stereo unspecified)
  4, -17, -17, 7.6, nt, nt, -8, -1.2, -1.7, 2
- O=C(Cn1cnc([N+](=O)[O-])c1)c1ccc(Cl)cc1
  -1, 3, 4, 0.6, 1, -1, 0, -4.2, 0.4, 3
- Cc1c2cnn(CC(=O)NCCN3CCOCC3)c(=O)c2c(C)n1Cc1ccccc1
  0, 7, 8, -2.6, 0, -4, -13, -10, 1.1, 3
- O=C(NC(=S)Nc1ccccc1N1CCOCC1)c1cccc([N+](=O)[O-])c1
  2, -3, -8, 0.1, -1, 12, 9, 3.1, -0.8, -2
- Cc1nn(-c2ccccc2)c(C)c1/C=N/NC(=O)c1cc(-c2ccccc2)n[nH]1
  -7, nt, nt, nt, 68*, 33, -11, -3.7, 0.5, -16
- CCC(C)(C)n1nnnc1C(c1ccc2ncccc2c1)N1CCCCCC1 (stereo unspecified)
  0, nt, nt, nt, 2, -7, -29, -2.0, -0.8, 1
- CCC1CN(C(=O)N2CCC(C(=O)NCc3ccccc3C)CC2)c2ccccc2O1 (stereo unspecified)
  -5, -2, 2, -1.5, 0, -22, -3, -5.2, 0.4, -32
- O=C(OCc1c(Cl)cccc1Cl)c1ccccn1
  -19, nt, nt, nt, -1, -5, -7, 4.5, -1.4, 14
- COc1cc(/C=N/NC(=S)NC2CC3CCC2C3)ccc1O (stereo unspecified)
  -4, -26*, -17*, -6.0*, -11, 14, 99*, -0.6, -0.9, -10
- CN1C(=O)CSc2ccc(NC(=O)NCc3ccc(F)cc3)cc21
  -1, -3, 1, 2.9, -13, -5, -4, -22, 0.6, 4
- COc1ccc(-c2csc(NC(=O)CSCC(=O)Nc3cc(C)on3)n2)cc1OC
  0, -19, -22, -0.3, 13, -4, 99*, -4.2, -0.4, 10
- COC(=O)c1cc(C)sc1NC(=O)C1CC=CCC1C(=O)O (stereo unspecified)
  -8, -5, 13, 0.6, 1, 1, -7, 3.2, 0.2, 0
- CC(/C=C1\SC(=S)N(CCC(=O)Nc2cccc(C(=O)O)c2)C1=O)=C\c1ccccc1
  -3, 7, 6, 3.1, -3, -3, 5, -3.8, -0.6, 53
- NC(=O)c1cc2ccccc2o/c1=N/NC(=O)c1ccccc1
  -13, 5, 14, -1.3, 5, 1, 2, -0.7, 0.1, 4
- O=C(CNC(=O)c1ccco1)NCC(c1ccco1)N1CCCCC1 (stereo unspecified)
  nt, 16, 14, 0.6, -11, -1, -4, 4.1, 1.3, nt
- COCCNC(=O)c1ccc(-n2c(SCc3cc(F)ccc3F)nc3ccccc3c2=O)cc1
  31, nt, nt, nt, 12, nt, -7, 2.2, 1.4, -15
- CCOC(=O)/C(=C/Nc1ccc(F)c(F)c1)[N+](=O)[O-]
  5, nt, nt, nt, 1, -4, -1, -0.6, 0.1, -6

# Structures listed so far containing fluorine (4):
# Values in the order: T cruzi repl, rRNA inh HTS, rRNA inh HTS OD600, rRNA inh HTS RFP, Beta2AR agonist, Beta cell apopt, ALR H2O2 inh, LANA-H2B inh, Bfl-1 A1 inh, Calb FLC
- O=C(Nc1cccnc1)c1cc(-c2ccc(F)cc2)on1
  -4, 22, 15, 0.3, -5, -2, -5, 8.2, 0.5, 5
- CN1C(=O)CSc2ccc(NC(=O)NCc3ccc(F)cc3)cc21
  -1, -3, 1, 2.9, -13, -5, -4, -22, 0.6, 4
- COCCNC(=O)c1ccc(-n2c(SCc3cc(F)ccc3F)nc3ccccc3c2=O)cc1
  31, nt, nt, nt, 12, nt, -7, 2.2, 1.4, -15
- CCOC(=O)/C(=C/Nc1ccc(F)c(F)c1)[N+](=O)[O-]
  5, nt, nt, nt, 1, -4, -1, -0.6, 0.1, -6

# Remaining list, next part:
# Values in the order: T cruzi repl, rRNA inh HTS, rRNA inh HTS OD600, rRNA inh HTS RFP, Beta2AR agonist, Beta cell apopt, ALR H2O2 inh, LANA-H2B inh, Bfl-1 A1 inh, Calb FLC
- c1ccc(-c2nc3ccccc3c3nc4ccccc4n23)cc1
  -13, nt, nt, nt, 1, -4, -2, -0.1, 0.0, 4
- O=C(COC(=O)Cc1cccc2ccccc12)Nc1ccccc1-c1ccccc1
  -10, -15, -19, -2.7, 1, 0, -14, -8.4, 0.4, 14
- O=S(=O)(c1cccs1)n1cccn1
  -6, nt, nt, nt, -5, -9, 0, 2.9, -0.7, -7
- COc1ccc(-c2cc([C@H]3[C@@H]4C=CCC[C@@]4(C)C(=O)N3Cc3ccccc3)ccc2F)cc1
  9, 9, 15, -6.1, 6, -3, nt, 0.5, -0.1, -10
- O=C(c1ccco1)N1CCN(c2ncnc3c2oc2ccccc23)CC1
  7, nt, nt, nt, -1, -5, -1, -0.3, 1.5, 1
- O=C(NCc1ccccn1)c1cc(-c2ccccc2Cl)nc2ccccc12
  11, 0, -12, 2.5, -8, 2, 55, 5.3, 0.4, 26
- COc1ccc(Nc2nc(N)nc(CN3CCC(C)CC3)n2)cc1
  -11, 10, 6, 1.1, -5, -9, -9, 0.2, 0.4, -6
- Cc1c(NC(=O)c2ccc3c(c2)C(=O)N(CC2CCCO2)C3=O)cccc1C(=O)O (stereo unspecified)
  -14, nt, nt, nt, 5, -6, -5, 6.8, -0.7, 8
- COc1cc(F)ccc1S(=O)(=O)NCc1cccnc1
  -5, 9, 12, 5.1, 2, nt, -8, 3.9, 1.3, -8
- CCN(Cc1ccccc1)C(c1ccc(C(F)(F)F)cc1)c1nnnn1C(C)(C)C (stereo unspecified)
  48, nt, nt, nt, 6, 106*, -8, 2.5, -0.9, 4
- O=C(CCCn1c(=O)c2cccn2c2cccnc21)N1CCN(c2ccccc2F)CC1
  7, 7, 9, 0.3, -6, 4, -5, -2.0, 1.8, -8
- Cn1ncc(Cl)c1C(=O)N1CCN(c2ncccn2)CC1
  4, 12, 9, -0.4, 2, -6, 1, -2.6, -0.8, 4
- CCOC(=O)N1CCC(Nc2c(Nc3ccc(F)cc3)c(=O)c2=O)CC1
  -5, nt, nt, nt, 2, -2, 5, 1.5, 0.9, 1
- CCc1cccc(NC(=O)Cn2c(=O)n(CCC(=O)NCC3CCCO3)c(=O)c3cc(OC)c(OC)cc32)c1 (stereo unspecified)
  3, 4, 2, -1.2, 0, 0, 0, 5.6, -0.2, -1
- CCOc1ccc(-n2c(=O)c3sccc3n(Cc3cccc([N+](=O)[O-])c3)c2=O)cc1
  -3, 7, 8, 1.3, -7, 0, 1, -1.6, -0.4, -9
- CC(NC(=O)Cc1cccs1)C(c1cccs1)N1CCN(c2ccccc2)CC1 (stereo unspecified)
  24, nt, nt, nt, 3, -2, 96*, -1.4, 0.6, -1
- O=C(NC1CC1)c1cc(=O)c2ccccc2o1
  -14, nt, nt, nt, 1, -3, -6, 6.6, 0.3, 8
- CCOC(=O)/C(C#N)=C/c1cn(CCC(=O)O)nc1-c1cccc(Br)c1
  1, -4, -1, 0.1, 6, 1, 25, -2.0, 0.0, -6
- CC(=O)Nc1ccc(-c2csc(NCc3ccco3)n2)cc1
  6, nt, nt, nt, -9, 4, 42, 3.8, -1.9, 2
- Cc1cc(C)cc(NC(=S)NC(=O)CCN2C(=O)c3ccccc3C2=O)c1
  -18, nt, nt, nt, 13, -21, -1, -3.4, 0.4, -1
- COc1cccc(CNC(=O)C2CCCN(S(=O)(=O)c3c(C)[nH]c(=O)[nH]c3=O)C2)c1 (stereo unspecified)
  -24, nt, nt, nt, -7, -2, -6, 3.0, -0.1, 1
- CN(C)c1cc[n+](Cc2c(Cl)cccc2Cl)cc1
  50, nt, nt, nt, 6, 97*, nt, 0.0, 0.7, -14
- CCc1nc(SCC(=O)NCC2CCCO2)c2c(=O)n(C)c(=O)n(C)c2n1 (stereo unspecified)
  5, 6, 6, -0.1, 1, 4, -4, -15, -0.9, -9
- Cc1ccc(-n2c3nc(=O)[nH]c(=O)c-3cc3c(C)nn(-c4ccccc4)c32)c(C)c1
  -12, nt, nt, nt, -746, 7, -2, 1.4, -0.7, -4
- CCOC(=O)N1CCN(Cc2nc3c(c(=O)[nH]c(=O)n3C)n2Cc2cc(C)ccc2C)CC1
  -1, -5, -3, 8.5, -15, -6, -2, 4.6, -1.0, 1
- CC(C)[C@H](NC(=O)OC(C)(C)C)C(=O)N/N=C/c1ccc2nccnc2c1
  -1, 16, 5, 3.0, -4, -10, nt, -6.8, -0.6, 0
- CCN(CC)c1ccc(/C=N/NC(=O)c2cccc(N3CCCC3=O)c2)cc1
  5, -3, 1, 1.7, 1, 5, 97*, -2.8, -0.2, -1
- O=C(Nc1nc2c(s1)CN(Cc1ccccc1)CC2)c1c(F)cccc1F
  0, 9, -1, 0.8, 21, -6, -1, -9.3, -0.2, 54

# An excerpt, so the mix of outcomes need not match the whole.
